Compound activity deposited in PubChem by National Center for Advancing Translational Sciences (NCATS).
TRPML1 agonist: activates the human TRPML1 channel; hit rate 0.12% among 410,000; Q9GZU1; TRPML1-expressing cells, Ca2+ dye fluorescence, FDSS; host cell line not named in the record; reference of the full effect not given here; activation, % (test concentration not listed); in the data active = activation above about 50%; inconclusive = about 30% to 50%; inactive = below about 30%; further: 0% is about no effect; the text of the record puts the active cut at 80%
Target sequence (Q9GZU1 whole entry, looked up): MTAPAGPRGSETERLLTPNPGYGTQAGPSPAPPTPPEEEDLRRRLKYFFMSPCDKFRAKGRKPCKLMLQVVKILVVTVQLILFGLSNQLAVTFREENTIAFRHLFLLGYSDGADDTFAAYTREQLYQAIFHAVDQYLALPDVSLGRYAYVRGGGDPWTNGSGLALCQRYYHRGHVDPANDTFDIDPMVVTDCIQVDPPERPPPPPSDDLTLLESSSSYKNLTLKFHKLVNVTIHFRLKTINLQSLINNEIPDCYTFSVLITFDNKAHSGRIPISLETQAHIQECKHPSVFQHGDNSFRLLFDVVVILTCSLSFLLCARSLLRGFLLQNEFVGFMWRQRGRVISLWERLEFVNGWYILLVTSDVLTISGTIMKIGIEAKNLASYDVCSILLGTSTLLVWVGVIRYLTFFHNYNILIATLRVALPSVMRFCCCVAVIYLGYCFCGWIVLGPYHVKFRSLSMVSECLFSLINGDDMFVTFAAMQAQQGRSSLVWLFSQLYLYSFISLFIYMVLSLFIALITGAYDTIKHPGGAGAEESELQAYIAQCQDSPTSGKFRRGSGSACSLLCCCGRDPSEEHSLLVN
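Cells: TRPML1-DL, 1X Tet inducer, ~16 h at 37 degrees C/5% CO2. Dye: ABD Ca8 no-wash + quencher, 45-90 min RT. Read: 10 s baseline, compound add, 110 s agonist phase; 54-4 EC80 (4uM final), 110 s antagonist phase.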
Six1-Eya2 inh: Six1/Eya2 interaction inhibition | Q15475+O00167 | AlphaScreen GST-Six1/His-Eya2 binding, biochemical; hits give low values; control for the full effect not named in the record | activity change, % (concentration not given with the values) | hit rate 0.56% among 360,000; in the data active = activity change below about -65%; inconclusive = about -30% to -65%; inactive = above about -30%; further: on the % scale 0 is the no-effect control and ±100 the full control effect
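AlphaScreen luminescence read after one hour at 37 °C in darkness. Pin-transferred compounds met GST-Six1 and His-Eya2 protein (5X stock 250 nM/500 nM) plus glutathione donor and Ni-chelate acceptor beads (5X, 50 ug/mL).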
PINK1 expr mod: PINK1 expression modulation; PINK1 immunofluorescence, high-content cytometry, 24 h; Potency, µM (series often up to 76.6 µM), inactives show top-dose activation (PINK1 increase), most hits filed as activators; hit rate 0.2% among 410,000; active = well fitted activation curve with a large enough effect; inconclusive = small, poorly fitted or top-dose-only effect; inactive = flat fitted curve, though single readings scatter; cell line not stated here;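 further: potency means the concentration at half of the fitted maximal effect; % of control where 0% means no effect; nearly all actives have a fitted effect of over 65% in size; a mitochondrial uncoupler was the plate control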
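PINK1 protein level read as immunofluorescence by microplate cytometer in a fixed, stained stable cell line after 24 h exposure to five compound concentrations, with CCCP as control.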
D2 PAM: human D2 receptor positive allosteric modulation; hit rate 0.23% among 360,000; potentiation, % (no concentration beside the values); DiscoveRx D2 beta-arrestin cells, luminescence, 90 min; 100% = 57 uM dopamine signal; P14416; active = potentiation of 50% or more; inconclusive = 30% to 50%; inactive = 30% or less;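 further: compound concentration not given in the record; tested on top of an EC20 dose of dopamine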
Target sequence (P14416 whole entry, looked up): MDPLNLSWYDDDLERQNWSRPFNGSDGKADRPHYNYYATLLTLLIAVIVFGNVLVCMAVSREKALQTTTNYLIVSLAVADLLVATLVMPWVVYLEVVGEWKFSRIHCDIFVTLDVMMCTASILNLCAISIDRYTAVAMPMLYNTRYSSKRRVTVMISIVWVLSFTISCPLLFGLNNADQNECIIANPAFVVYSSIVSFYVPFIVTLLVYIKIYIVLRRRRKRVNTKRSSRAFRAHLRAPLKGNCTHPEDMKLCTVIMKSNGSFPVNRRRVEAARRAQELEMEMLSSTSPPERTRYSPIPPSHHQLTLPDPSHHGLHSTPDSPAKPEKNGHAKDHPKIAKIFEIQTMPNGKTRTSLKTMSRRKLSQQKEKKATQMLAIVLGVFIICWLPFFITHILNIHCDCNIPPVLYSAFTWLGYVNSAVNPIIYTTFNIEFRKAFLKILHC
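D2 cells co-treated with compound plus 50 nM dopamine (EC20) for 90 min at 37 deg C to detect potentiation. Beta-arrestin recruitment was read as enzyme-fragment luminescence after 1 h at ambient temperature. Full response was set by 57 uM dopamine.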
D2 ag: agonists of human D2 dopamine receptor (beta-arrestin); DiscoveRx PathHunter D2 beta-arrestin, luminescence, 90 min; 100% = 57 uM dopamine signal; AID 624465; hit rate 0.084% among 360,000; activation, % (test concentration not listed); P14416; in the data active = activation above about 40%; inconclusive = about 15% to 40%; inactive = below about 15%; further: compound concentration not given in the record; the text of the record calls up to 30% inactive
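Agonist mode: compounds alone added to overnight-plated D2 PathHunter cells for 90 min at 37 C, with 57 uM final dopamine (EC100) defining full response. Beta-arrestin recruitment detected by chemiluminescent reagent, read after 1 h at ambient temperature.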
TRPML1 blocker: human mucolipin-1 channel inhibition; Q9GZU1; TRPML1-inducible cells, Ca2+ dye fluorescence, FDSS; hits give low values; inhibition of EC80 agonist-evoked calcium signal; activity change, negative = inhibition, % (no concentration beside the values); hit rate 0.02% among 390,000; in the data active means activity change below about -50%; inconclusive means about -30% to -50%; inactive means above about -30%;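 further: stimulus is agonist 54-4 at its EC80 concentration; on the % scale 0 is the no-effect control and ±100 the full control effect; compound concentration not given in the record; the text of the record puts the active cut at -80%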
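Calcium fluorescence in TRPML1-DL cells induced overnight with Tet: a 110 s read after compound pin addition, then a 110 s antagonist read after challenge with 54-4 at 4 uM final (EC80).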
Starred values were filed as active, the others as inactive; & = joins results of further samples.

For COCCN(C(=O)c1ccc(C)o1)c1c(N)n(CC(C)C)c(=O)[nH]c1=O the results were TRPML1 agonist 0.9, Six1-Eya2 inh -8, PINK1 expr mod -0.6%, D2 PAM -8, D2 ag 2.4 and TRPML1 blocker 18.
For CC(=O)c1sc(NC(=O)COc2ccc([N+](=O)[O-])cc2)nc1C the results were TRPML1 agonist 0.5, Six1-Eya2 inh 65, PINK1 expr mod -0.9%, D2 PAM -2, D2 ag -2.4 and TRPML1 blocker 12.
Screening COC(=O)C1CC(O)CN1S(=O)(=O)c1cccs1 (stereo unspecified) returned TRPML1 agonist -1.1, Six1-Eya2 inh 8, PINK1 expr mod 1.9%, D2 PAM 4, D2 ag 0.1 and TRPML1 blocker 2.
For Cc1ccccc1NC(=O)CCS(=O)(=O)c1cc(Br)cc2c1N(C(=O)C1CC1)CC2 the results were TRPML1 agonist -0.3, PINK1 expr mod 3.0% and TRPML1 blocker 1.
For COc1cc(CCC(=O)OCC(=O)NCc2ccccc2)cc(OC)c1OC the results were TRPML1 agonist 1.2, Six1-Eya2 inh 0, PINK1 expr mod 0.7%, D2 PAM -12, D2 ag -19 and TRPML1 blocker 2.
Screening O=C(Nc1ccc(C(=O)N2CCOCC2)cc1)C1CCCC1 returned TRPML1 agonist -0.7, Six1-Eya2 inh 2, PINK1 expr mod -0.9%, D2 ag -1.0 and TRPML1 blocker -1.
`Cc1cc(C)c(NC(=O)Cn2c(=O)n(CCC(=O)N3CCc4ccccc4C3)c(=O)c3ccccc32)c(C)c1` gave TRPML1 agonist 0.9, PINK1 expr mod 8.0% and TRPML1 blocker -7.
Nn1c(Cc2ccccc2F)nnc1SCC(=O)N1CC(=O)Nc2ccccc21 was read as TRPML1 agonist 1.2, Six1-Eya2 inh -2, PINK1 expr mod -1.4%, D2 PAM -6, D2 ag 0.2 and TRPML1 blocker 1.
N#Cc1cccc(Oc2ccc(-c3cnc4ccccc4n3)cc2)c1C#N was read as TRPML1 agonist 0.7, Six1-Eya2 inh 11, PINK1 expr mod inconclusive, D2 PAM -3, D2 ag -0.6 and TRPML1 blocker -5.
Screening Cc1ccc(NC(=O)CN(C)c2ccc(S(=O)(=O)N3CCN(C)CC3)cn2)cc1 returned TRPML1 agonist -0.5, Six1-Eya2 inh 0, PINK1 expr mod -2.4%, D2 PAM -9, D2 ag -3.0 and TRPML1 blocker 7.
CC(C)Cc1ccc(-c2cc3nc(NCc4cccc(Cl)c4)ccn3n2)cc1 was read as TRPML1 agonist 0.2, Six1-Eya2 inh 4, PINK1 expr mod inconclusive, D2 PAM 3 and D2 ag 4.7.
CS(=O)(=O)c1ncc(N(Cc2ccco2)Cc2cccs2)c(C(=O)Nc2ccccc2F)n1 was read as TRPML1 agonist 1.1, PINK1 expr mod -0.7% and TRPML1 blocker -6.
For CCn1nnc(NC(=O)c2ccc(-c3ccc(Cl)cc3)o2)n1 the results were TRPML1 agonist 1.7, Six1-Eya2 inh -5, PINK1 expr mod -1.4%, D2 PAM -13, D2 ag -1.4 and TRPML1 blocker 36.
Screening Cc1ccc2nc(Cl)c(C#N)cc2c1 returned TRPML1 agonist -0.4, Six1-Eya2 inh 6, PINK1 expr mod -0.4%, D2 PAM -2, D2 ag -0.3 and TRPML1 blocker -12.
Screening COc1ccc(-c2sc3ccccc3c2C#CCO)cc1 returned TRPML1 agonist 0.4, Six1-Eya2 inh -2, PINK1 expr mod -0.2%, D2 PAM -2, D2 ag -1.9 and TRPML1 blocker 26.
`COc1ccc(C(=O)Nc2nc3c(s2)CCc2cc(OC)ccc2-3)cc1` gave TRPML1 agonist 2.1, PINK1 expr mod 1.2% and TRPML1 blocker 0.
For Cc1ccccc1C(=O)Nc1ccc2nc(SCCOc3ccccc3)sc2c1 the results were TRPML1 agonist -0.3, PINK1 expr mod 5.0% and TRPML1 blocker 10.
`CC1=CC(C)(C)Nc2ccc(OC(=O)CN3C(=O)C4CCCCC4C3=O)cc21` (stereo unspecified) gave TRPML1 agonist 0.0, Six1-Eya2 inh -18, PINK1 expr mod 1.9%, D2 PAM -1, D2 ag inconclusive and TRPML1 blocker -4.
`O=C(NCCc1nc(-c2ccccc2)no1)c1ccccc1` gave TRPML1 agonist -0.1, Six1-Eya2 inh 8, PINK1 expr mod 1.9%, D2 PAM -11, D2 ag -3.3 and TRPML1 blocker 5.
Screening COC(=O)c1cc(OC)c(OC)cc1NC(=O)C(C)c1ccc([N+](=O)[O-])cc1 (stereo unspecified) returned TRPML1 agonist 1.6, Six1-Eya2 inh -10, PINK1 expr mod -0.4%, D2 PAM 5, D2 ag -3.3 and TRPML1 blocker -14.

Fetched by structure from the entries so far:
`O=C(NCCc1nc(-c2ccccc2)no1)c1ccccc1` gave TRPML1 agonist -0.1, Six1-Eya2 inh 8, PINK1 expr mod 1.9%, D2 PAM -11, D2 ag -3.3 and TRPML1 blocker 5.
For Cc1ccccc1C(=O)Nc1ccc2nc(SCCOc3ccccc3)sc2c1 the results were TRPML1 agonist -0.3, PINK1 expr mod 5.0% and TRPML1 blocker 10.
Screening Cc1ccc2nc(Cl)c(C#N)cc2c1 returned TRPML1 agonist -0.4, Six1-Eya2 inh 6, PINK1 expr mod -0.4%, D2 PAM -2, D2 ag -0.3 and TRPML1 blocker -12.

The listing continues:
`COc1ccccc1N1CCN(c2nc3ccc(C(=O)c4ccccc4)cc3n3c(C)nnc23)CC1` gave TRPML1 agonist 0.0, PINK1 expr mod 2.6% and TRPML1 blocker -19.
O=c1c2ccccc2c(C=NCCc2ccccc2)c(O)n1Cc1ccccc1 was read as TRPML1 agonist -0.3, Six1-Eya2 inh -19, PINK1 expr mod -2.3%, D2 PAM -16, D2 ag -1.3 and TRPML1 blocker -1.
CCCOc1ccc(-c2nnc(-c3cccs3)o2)cc1 was read as TRPML1 agonist 1.7, Six1-Eya2 inh 13, PINK1 expr mod 6.3%, D2 PAM 5, D2 ag -1.9 and TRPML1 blocker 8.
O=C(Nc1ccc(N2CCOCC2)c(Cl)c1)c1c(F)c(F)c(F)c(F)c1F was read as TRPML1 agonist -0.9, Six1-Eya2 inh 1, PINK1 expr mod 5.7%, D2 PAM -5, D2 ag 0.1 and TRPML1 blocker -1.
For COc1ccc(CNC(=O)CCS(=O)(=O)c2cc3c(cc2Cl)NC(=O)CO3)cc1 the results were TRPML1 agonist -0.1, Six1-Eya2 inh 5, PINK1 expr mod -0.6%, D2 PAM -9, D2 ag 3.9 and TRPML1 blocker 1.
Screening Cn1c2ccccc2c(=O)c2ccc(F)cc21 returned TRPML1 agonist -0.2&1.7, Six1-Eya2 inh 2, PINK1 expr mod -0.9%, D2 PAM -10, D2 ag -2.7 and TRPML1 blocker 12.
Screening Cc1ccc(-n2c(-c3ccco3)nc3nc4ccccc4nc32)cc1 returned TRPML1 agonist 0.2, Six1-Eya2 inh -2, PINK1 expr mod 2.5%, D2 PAM -6, D2 ag -5.5 and TRPML1 blocker 19.
For COCCn1nnnc1C(c1ccccc1)N1CCN(C(=O)c2ccco2)CC1 (stereo unspecified) the results were TRPML1 agonist 0.4, Six1-Eya2 inh -4, PINK1 expr mod 0.8%, D2 PAM -11, D2 ag -5.7 and TRPML1 blocker 4.
`CC(CC(=O)N1CCN(S(=O)(=O)c2ccc([N+](=O)[O-])cc2)CC1)c1ccccc1` (stereo unspecified) gave TRPML1 agonist 0.1, Six1-Eya2 inh 0, PINK1 expr mod -1.1%, D2 PAM -2, D2 ag 6.9 and TRPML1 blocker 5.
`O=C(COC(=O)c1cccc(S(=O)(=O)N2CCCC2)c1)Nc1ccccc1` gave TRPML1 agonist -0.3, Six1-Eya2 inh 8, PINK1 expr mod 0.2%, D2 PAM -10, D2 ag 3.1 and TRPML1 blocker 7.
O=c1c2c3n(c(=O)nc2[nH]n1-c1ccccc1)CCCCC3 was read as TRPML1 agonist -0.4, Six1-Eya2 inh 7, PINK1 expr mod -0.5%, D2 PAM 1, D2 ag -1.1 and TRPML1 blocker -10.
Screening Cc1cccc(C)c1OCC(=O)Nc1c(C(=O)c2ccccc2)oc2ccccc12 returned TRPML1 agonist 0.3, PINK1 expr mod 3.2% and TRPML1 blocker -17.
Screening CN(Cc1ccc(Cl)c(Cl)c1)C(=O)C1=CC=CN2CCS(=O)(=O)N=C12 returned TRPML1 agonist -0.8, Six1-Eya2 inh -2, PINK1 expr mod 0.9%, D2 PAM -6, D2 ag -3.9 and TRPML1 blocker -6.
N#Cc1ccc(NC(=O)c2cc(S(=O)(=O)N3CCOCC3)ccc2N2CCCC2)cc1 was read as TRPML1 agonist 0.2, Six1-Eya2 inh -1, PINK1 expr mod 2.7%, D2 PAM -3, D2 ag -6.2 and TRPML1 blocker -2.
`CCOC(=O)Cc1csc(SCc2nc3ccccc3c(=O)[nH]2)n1` gave TRPML1 agonist 1.8, Six1-Eya2 inh -1, PINK1 expr mod -0.9%, D2 PAM -5, D2 ag -1.9 and TRPML1 blocker 25.
`COC(=O)c1nnn(CC(=O)NC(=O)Nc2c(C)cccc2C)c1C(=O)OC` gave TRPML1 agonist 0.4&1.1, Six1-Eya2 inh 18, PINK1 expr mod 1.8%&2.3%, D2 PAM -8, D2 ag -5.6 and TRPML1 blocker 10&1.
`COC(=O)c1ccc(Cl)c(NC(=O)CN(c2ccccc2)S(=O)(=O)c2ccc(OC)cc2)c1` gave TRPML1 agonist -0.4, Six1-Eya2 inh 4, PINK1 expr mod -0.7%, D2 PAM -11, D2 ag -3.3 and TRPML1 blocker 5.
`CNC(=O)NC(=O)C(C)OC(=O)c1c(C)noc1C` (stereo unspecified) gave TRPML1 agonist 1.3, Six1-Eya2 inh 12, PINK1 expr mod 0.4%, D2 PAM -2, D2 ag -1.9 and TRPML1 blocker -8.
For CC(C)CN(C(=O)COC(=O)c1ccc([N+](=O)[O-])o1)C1CCS(=O)(=O)C1 (stereo unspecified) the results were TRPML1 agonist 0.2, Six1-Eya2 inh 8, PINK1 expr mod 1.2%, D2 PAM 17, D2 ag 5.4 and TRPML1 blocker -21.
`CCOC(=O)C1CCN(C(=O)C2(NC(=O)Nc3cccc(F)c3)CCCCC2)CC1` gave TRPML1 agonist -1.0, Six1-Eya2 inh 5, PINK1 expr mod 7.8%, D2 PAM 3, D2 ag -12 and TRPML1 blocker -17.
Screening c1ccc(N=C2SCCCS2)cc1 returned TRPML1 agonist -0.4, Six1-Eya2 inh 14, PINK1 expr mod 1.6%, D2 PAM -11, D2 ag -7.7 and TRPML1 blocker 0.
CCCC(=O)N1CCC1(C)C(=O)NS(=O)(=O)c1ccc(F)cc1F (stereo unspecified) was read as TRPML1 agonist -0.3, Six1-Eya2 inh 2, PINK1 expr mod -0.7%, D2 PAM -12, D2 ag -4.0 and TRPML1 blocker inconclusive.
Screening Cc1cccc(N(C(=O)c2nsc(Cl)c2Cl)C(C(=O)NC2CCCC2)c2ccc(O)cc2)c1C (stereo unspecified) returned TRPML1 agonist 3.3, Six1-Eya2 inh -10, PINK1 expr mod 45µM*, D2 PAM -5, D2 ag -4.0 and TRPML1 blocker 2.
